Screens as filed in PubChem BioAssay.
UUG fidelity: modulators of yeast start codon fidelity, primary screen, whole organism, S. cerevisiae, single point, plate reader. S. cerevisiae UUG-firefly luciferase reporter, luminescence/redox ratio. activity score, % at 18.7 µM. 0.13% of 350,000 active;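 active means replicate mean at a twofold rise or more, about +100% in these data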;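 further: firefly luciferase made from a UUG start codon reports start codon fidelity; reporter light over untreated wells divided by growth signal over untreated wells; some hits fall short of that in this replicate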
* hit, by the source's call. This is a subset; count on the stated rates, not on these rows.

UUG fidelity | Molecule
-2 | C[C@@H]1CN([C@@H](C)CO)C(=O)Cc2cc(NC(=O)Cc3ccccc3)ccc2O[C@H]1CN(C)S(=O)(=O)c1ccc(Cl)cc1
27 | CCCC(=O)Nc1ccc2c(c1)C(=O)N(C)[C@H]1CC[C@@H](CC(=O)NCCc3ccccc3)O[C@H]1CO2
0 | C/C=C/c1ccc([C@@H]2[C@@H](CN(C)C(=O)C3CC3)N(C(=O)C3CC3)[C@H]2CO)cc1
5 | C[C@@H]1CN([C@@H](C)CO)C(=O)c2cc(NC(=O)CCC(F)(F)F)ccc2O[C@H]1CN(C)S(=O)(=O)c1cccs1
-4 | CN(C)C(=O)[C@H]1[C@H](CO)[C@H]2Cn3c(ccc(C4=CCCC4)c3=O)[C@@H]1N2CC1CCCCC1
6 | CO[C@@H]1CN(C)C(=O)c2ccc(NS(C)(=O)=O)cc2OC[C@@H](C)N(C(=O)C2CCCC2)C[C@H]1C
-4 | CCC(=O)N1CC[C@@H]2[C@H]1c1cc(-c3ccc(F)cc3)ccc1N(C)[C@@H]2CO
19 | C[C@H](CO)N1C[C@H](C)[C@H](CN(C)S(=O)(=O)c2cccs2)Oc2ncc(C#CC(C)(C)O)cc2C1=O

Later entries.
UUG fidelity | Molecule
-2 | O=C(c1cccc(F)c1)N1CCCCN2[C@H](CO)[C@@H](c3ccc(/C=C/c4ccccc4)cc3)[C@H]2C1
-9 | CCCNC(=O)N1C[C@H](O)COC[C@@H]2O[C@@H](CC(=O)N3CCOCC3)CC[C@H]21
-15 | C[C@@H]1CN([C@H](C)CO)C(=O)Cc2cc(NC(=O)Nc3ccc(F)cc3)ccc2O[C@@H]1CN(C)Cc1ccncc1
29 | CN(C)C(=O)c1cccc(-c2ccc3c(c2)[C@H]2[C@H](CCN2C(=O)C2CC2)[C@@H](CO)N3)c1
1 | COc1ccccc1-c1ccc([C@@H]2[C@@H](CO)N3CCCCN(C(=O)c4cccnc4)C[C@H]23)cc1
4 | COc1ccc(CN(C)C[C@H]2Oc3ccc(NS(=O)(=O)c4ccc(Cl)cc4)cc3C(=O)N([C@@H](C)CO)C[C@H]2C)cc1
-11 | Cc1noc(C)c1NC(=O)N(C)C[C@H]1Oc2c(NC(=O)C3CCOCC3)cccc2C(=O)N([C@H](C)CO)C[C@@H]1C
5 | CCCNC(=O)N1[C@@H](CO)[C@@H]2c3ccccc3N(C(=O)Nc3ccc(F)cc3)C[C@@H]21

Three entries out of the list, ordered by molecular weight, highest first:
UUG fidelity | Molecule
1 | COc1ccccc1-c1ccc([C@@H]2[C@@H](CO)N3CCCCN(C(=O)c4cccnc4)C[C@H]23)cc1
5 | CCCNC(=O)N1[C@@H](CO)[C@@H]2c3ccccc3N(C(=O)Nc3ccc(F)cc3)C[C@@H]21
-9 | CCCNC(=O)N1C[C@H](O)COC[C@@H]2O[C@@H](CC(=O)N3CCOCC3)CC[C@H]21

(list continues)
UUG fidelity | Molecule
3 | CO[C@H]1CN(C)C(=O)c2ccc(NC(C)=O)cc2OC[C@@H](C)N(C(=O)C2CCOCC2)C[C@H]1C
47 | CCCC(=O)Nc1ccc2c(c1)OC[C@H](C)N(Cc1ccc(-c3ccccn3)cc1)C[C@H](C)[C@H](OC)CN(C)C2=O
22 | CCC(=O)Nc1ccc2c(c1)C(=O)N(C)C[C@@H](OC)[C@H](C)CN(C(=O)c1cnccn1)[C@H](C)CO2
1 | O=C(C[C@@H]1CC[C@H]2[C@@H](COC[C@H](O)CN2C(=O)c2ccncc2)O1)Nc1ccc(-c2ccccc2)cc1
18 | O=C(C1CCCC1)N1CCCCN2[C@H](CO)[C@H](c3ccc(C#CC4CC4)cc3)[C@@H]2C1
-6 | C[C@@H]1CN([C@H](C)CO)C(=O)c2cc(NC(=O)Nc3ccc4c(c3)OCO4)ccc2O[C@@H]1CN(C)C(=O)Nc1cccc2ccccc12
7 | C[C@H]1CN([C@@H](C)CO)C(=O)c2cc(NC(=O)C3CC3)ccc2O[C@@H]1CN(C)S(=O)(=O)c1ccccc1
-6 | CCCNC(=O)Nc1ccc2c(c1)OC[C@@H](C)N(Cc1ccc(-c3ccccn3)cc1)C[C@H](C)[C@H](OC)CN(C)C2=O

(more compounds)
UUG fidelity | Molecule
22 | CCN1[C@H](C(=O)N[C@H](C)c2ccccc2)[C@@H](CO)[C@@H]2Cn3c(ccc(-c4cccc(F)c4)c3=O)[C@@H]21
-8 | C[C@H]1CN([C@@H](C)CO)C(=O)c2ccccc2-c2ccccc2CO[C@H]1CN(C)Cc1ccc(C(=O)O)cc1
-10 | C[C@H](CO)N1C[C@H](C)[C@H](CN(C)Cc2ccc(Oc3ccccc3)cc2)Oc2ccc(NS(=O)(=O)c3cn(C)cn3)cc2C1=O
2 | CC(C)NC(=O)Nc1ccc2c(c1)CC(=O)N([C@H](C)CO)C[C@@H](C)[C@H](CN(C)Cc1ccc(Cl)c(Cl)c1)O2
0 | CC1C=NC(S(=O)(=O)N2CC[C@@H]3[C@@H](CO)N(C)c4ccc(C5=CCCCC5)cc4[C@@H]32)=N1 (stereo partly specified)
2 | Cc1ccc(S(=O)(=O)N(C)C[C@@H]2OCc3ccccc3-c3c(n(C)c4ccccc34)C(=O)N([C@H](C)CO)C[C@H]2C)cc1
-1 | C[C@@H](NC(=O)C[C@H]1CC[C@@H]2[C@H](COC[C@@H](O)CN2C(=O)Nc2ccccc2)O1)c1ccccc1
-11 | CO[C@H]1CN(C)C(=O)c2ccc(NC(=O)C3CCC3)cc2OC[C@H](C)N(Cc2cccnc2)C[C@@H]1C

Additional entries:
UUG fidelity | Molecule
4 | COc1ccc(S(=O)(=O)Nc2ccc3c(c2)C(=O)N([C@@H](C)CO)C[C@@H](C)[C@@H](CN(C)Cc2ccc4c(c2)OCO4)O3)cc1
15 | CNC[C@H]1Oc2ccc(NS(=O)(=O)c3ccc(Cl)cc3)cc2C(=O)N([C@@H](C)CO)C[C@@H]1C
7 | O=C(CC1CC1)N1CC[C@@H]2[C@H]1c1cc(-c3cccc(F)c3)ccc1N[C@@H]2CO
-14 | CCS(=O)(=O)Nc1ccc2c(c1)C(=O)N(C)C[C@H](OC)[C@@H](C)CN(C(=O)CN(C)C)[C@@H](C)CO2
-30 | O=C(C1CC1)N1C[C@H]2[C@@H](c3ccccc31)[C@@H](CO)N2Cc1ccccc1Cl
-1 | CCC(=O)N1C[C@H](C)[C@H](OC)CN(C)C(=O)c2cc(NS(C)(=O)=O)ccc2OC[C@H]1C
-18 | CO[C@@H]1CN(C)C(=O)c2cc(NC(C)=O)ccc2OC[C@@H](C)N(C(=O)Cc2cccnc2)C[C@H]1C
3 | CCC(=O)N1[C@H](CO)[C@@H](c2ccccc2)[C@@H]1CN(CC)C(=O)c1ccccc1

Further results
UUG fidelity | Molecule
-8 | C[C@H](CO)N1C[C@H](C)[C@H](CN(C)S(C)(=O)=O)Oc2ccc(NS(C)(=O)=O)cc2C1=O
-8 | O=C(Cc1ccccc1)N1CC[C@@H]2[C@H](CO)Nc3ccc(-c4ccc(F)cc4)cc3[C@@H]21
3 | CC(=O)NC[C@@H]1[C@@H](c2ccc(-c3ccccc3F)cc2)[C@H](CO)N1C(=O)C1CC1
-17 | COc1cccc(-c2ccc3c(c2)[C@H]2[C@H](CCN2C(=O)c2ccccc2F)[C@H](CO)N3C)c1
-8 | CCN(C[C@H]1[C@H](c2ccccc2)[C@H](CO)N1C(C)=O)C(=O)NC1CCCC1
-9 | CCCN1C[C@@H](C)[C@H](OC)CN(C)C(=O)c2ccc(NC(=O)Nc3ccccc3F)cc2OC[C@@H]1C
9 | CCCNC(=O)C[C@H]1CC[C@@H]2[C@H](COc3ccc(NC(=O)Nc4c(C)noc4C)cc3C(=O)N2C)O1
13 | COc1cccc(S(=O)(=O)N2CCCCN3[C@H](CO)[C@H](c4ccc(-c5ccccc5)cc4)[C@@H]3C2)c1

Following part:
UUG fidelity | Molecule
2 | O=C(Cc1ccccc1)N1C[C@H]2[C@@H](c3ccccc31)[C@H](CO)N2C(=O)Cc1ccccc1
17 | O=C(C[C@H]1CC[C@H]2[C@@H](COC[C@@H](O)CN2S(=O)(=O)c2ccccc2Cl)O1)N1CCC(Cc2ccccc2)CC1
-4 | CO[C@H]1CN(C)C(=O)c2cc(NC(=O)C3CCCCC3)ccc2OC[C@@H](C)N(Cc2cccnc2)C[C@H]1C
-2 | CC(C)NC(=O)N(C)C[C@H]1Oc2ccc(NC(=O)Nc3ccc4c(c3)OCO4)cc2C(=O)N([C@H](C)CO)C[C@H]1C
6 | O=C(Nc1ccccc1F)N1CCCCN2[C@H](CO)[C@H](c3ccc(C4=CCCC4)cc3)[C@H]2C1
-10 | CO[C@H]1CN(C)C(=O)c2cc(NC(=O)C3CCCCC3)ccc2OC[C@@H](C)N(C)C[C@H]1C
1 | CCCC(=O)Nc1ccc2c(c1)C(=O)N(C)[C@H]1CC[C@H](CC(=O)NCCc3ccccc3)O[C@H]1CO2
-7 | O=C(C[C@H]1C[C@H]2c3cc(NC(=O)Nc4ccccc4)ccc3O[C@H]2[C@@H](CO)O1)NCC1CC1

(listing goes on)
UUG fidelity | Molecule
-1 | CN1C(=O)c2cc(NC(=O)Nc3cccc(Cl)c3)ccc2OC[C@H]2O[C@@H](CC(=O)NCCc3ccncc3)CC[C@H]21
-4 | COc1ccc(CN(C)C[C@H]2Oc3ccc(NC(=O)c4ccncc4)cc3C(=O)N([C@@H](C)CO)C[C@@H]2C)cc1
-3 | O=C(C[C@H]1CC[C@H]2[C@@H](COC[C@@H](O)CN2Cc2ccc(F)cc2)O1)NCCc1ccccc1
2 | C[C@H]1CN([C@@H](C)CO)C(=O)c2cccc(NC(=O)NC3CCCCC3)c2O[C@H]1CN(C)S(C)(=O)=O
9 | O=C(C1CC1)N1CCCCN2[C@H](CO)[C@@H](c3ccc(C#CC4(O)CCCC4)cc3)[C@H]2C1
32 | Cc1ccccc1-c1ccc([C@@H]2[C@H]3CN(C(=O)Nc4cccc(F)c4)CCCCN3[C@H]2CO)cc1
11 | CC=Cc1ccc2n(c1=O)C[C@@H]1[C@@H](CO)[C@H](C(=O)NCc3cccc(F)c3)[C@H]2N1S(C)(=O)=O (mixture of isomers)
1 | CO[C@@H]1CN(C)C(=O)c2ccc(NC(C)=O)cc2OC[C@H](C)N(Cc2cc(F)ccc2F)C[C@H]1C

The list goes on.
UUG fidelity | Molecule
-7 | C[C@H]1CN([C@@H](C)CO)C(=O)c2cc(NC(=O)Nc3ccc(F)cc3)ccc2O[C@@H]1CN(C)C(=O)Nc1cccc2ccccc12
10 | C[C@H]1CN([C@@H](C)CO)C(=O)c2cccc(NC(=O)Nc3ccccc3)c2O[C@@H]1CN(C)C(=O)Nc1ccc(F)cc1
4 | COCC#Cc1ccc([C@@H]2[C@@H](CO)N3CCCCN(Cc4cncnc4)C[C@H]23)cc1
-6 | CO[C@@H]1CN(C)C(=O)c2cc(NC(=O)c3cnccn3)ccc2OC[C@@H](C)N(CCc2ccccc2)C[C@@H]1C
-11 | CO[C@H]1CN(C)C(=O)c2cc(NC(C)=O)ccc2OC[C@@H](C)N(CC2CC2)C[C@@H]1C
-7 | Cc1ccc(S(=O)(=O)N(C)C[C@@H]2Oc3ccc(NC(=O)c4ccncc4)cc3CC(=O)N([C@@H](C)CO)C[C@@H]2C)cc1
-9 | CO[C@H]1CN(C)C(=O)c2cc(NC(=O)C3CC3)ccc2OC[C@@H](C)N(Cc2cccc(F)c2)C[C@H]1C
-4 | C[C@@H]1CN([C@@H](C)CO)C(=O)c2cc(NS(C)(=O)=O)ccc2O[C@H]1CN(C)S(=O)(=O)c1ccc(F)cc1

3 compounds picked at random from those above, as already listed:
UUG fidelity | Molecule
10 | C[C@H]1CN([C@@H](C)CO)C(=O)c2cccc(NC(=O)Nc3ccccc3)c2O[C@@H]1CN(C)C(=O)Nc1ccc(F)cc1
-9 | CO[C@H]1CN(C)C(=O)c2cc(NC(=O)C3CC3)ccc2OC[C@@H](C)N(Cc2cccc(F)c2)C[C@H]1C
-4 | C[C@@H]1CN([C@@H](C)CO)C(=O)c2cc(NS(C)(=O)=O)ccc2O[C@H]1CN(C)S(=O)(=O)c1ccc(F)cc1

Carrying on:
UUG fidelity | Molecule
-21 | COC(=O)C[C@@H]1CC[C@H]2[C@@H](COc3ccc(NC(=O)Nc4cccc(F)c4)cc3C(=O)N2C)O1
-18 | COCCNC(=O)C[C@H]1C[C@H]2c3cc(NC(=O)Nc4ccccc4)ccc3O[C@H]2[C@H](CO)O1
-6 | CCCNC(=O)Nc1ccc2c(c1)C(=O)N(C)C[C@@H](OC)[C@H](C)CN(Cc1cncnc1)[C@H](C)CO2
1 | C/C=C/c1ccc([C@@H]2[C@@H](CO)N3CCCCN(CCC(F)(F)F)C[C@@H]23)cc1
-4 | CCCNC(=O)N1[C@@H](CO)[C@@H]2c3ccccc3N(C(=O)Nc3ccccc3)C[C@@H]21
-11 | O=C(C[C@@H]1CC[C@H]2[C@@H](COC[C@H](O)CN2Cc2ccc3c(c2)OCO3)O1)N1CCOCC1
24 | CO[C@@H]1CN(C)C(=O)c2cc(NC(=O)c3ccc4c(c3)OCO4)ccc2OC[C@H](C)N(CCC(F)(F)F)C[C@@H]1C
-2 | CCCN1C[C@H](C)[C@@H](OC)CN(C)C(=O)c2ccc(NC(=O)c3cnccn3)cc2OC[C@H]1C

(cont.)
UUG fidelity | Molecule
14 | C[C@H](CO)N1C[C@H](C)[C@@H](CN(C)Cc2ccc(C(=O)Nc3ccccc3N)cc2)Oc2ccc(NS(=O)(=O)c3cccs3)cc2C1=O
-10 | C[C@@H]1CN([C@H](C)CO)C(=O)c2cccc(NC(=O)c3ccncc3)c2O[C@@H]1CN(C)S(=O)(=O)c1ccc(Cl)cc1
13 | C[C@H](CO)N1C[C@H](C)[C@@H](CN(C)S(=O)(=O)c2ccccc2)Oc2ccc(NC(=O)CCC(F)(F)F)cc2CC1=O
85 | CCC(=O)Nc1ccc2c(c1)OC[C@@H](C)N(Cc1cccnc1)C[C@@H](C)[C@H](OC)CN(C)C2=O
-6 | COc1ccc(C#Cc2ccc([C@@H]3[C@@H](CO)N4CCCCN(S(=O)(=O)c5ccccc5)C[C@H]34)cc2)cc1
